High-throughput results deposited in PubChem by several laboratories.
PrP UTR inh = inhibition of PrP 5' UTR reporter expression | cell-based PrP 5' UTR mRNA reporter, plate reader | inhibition, % (no concentration beside the values) | hit rate 0.35% among 340,000 | AID 488862;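 active = every replicate at 50% or more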;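 also: 0 = median of the neutral control wells; tested in H4 reporter cells; numbers are from one replicate; inactives centre near -14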
Mtb hypoxia inh = Mtb hypoxia fluorescent reporter inhibition. M. tuberculosis hypoxia-regulated fluorescent reporter, fluorescence. hit rate 0.1% among 300,000. fluorescence inhibition, % (no concentration beside the values);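 active = 35 to 45% if threefold the growth effect, above 45% if 1.5-fold the growth effect; inactive = the rest, general growth blockers included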;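 also: wells of about 50 µL received 100 nL stock; 0% = vehicle wells and 100% = reference inhibitor wells; whole bacteria with a GFP reporter of the hypoxia response; strong numbers were not always called active; many hits fall short of the cut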
BJeLR lethal = kills HRASV12-expressing BJeLR cells; BJeLR (HRASV12) viability, CellTiter-Glo ATP luminescence, 48 h; reference of the scale not given here; inhibition, % (concentration not given with the values); hit rate 0.17% among 300,000;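 active = replicate mean above 50%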;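 also: 50 nL library stock added to about 25 µL; numbers are from one replicate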
Bead autofluor = counter-screen for toxin protease inhibitors: compound fluorescence. compound autofluorescence counterscreen, microsphere flow cytometry; hits give high values. fluorescence intensity (test concentration not listed). hit rate 3.1% among 360,000;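 active = at least 3 SD above the mean of all compounds, about 16000 in these data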;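 also: 100 nL of 1 mM stock went into each well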
ugtP null kill = compounds lethal to S. aureus RN4220 ugtP deletion mutant; OD600 growth, 16 h; some inactives read as strong as hits; AID 1259309; growth inhibition, % (no concentration beside the values); hit rate 0.54% among 330,000;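 active = z-score under -3 and OD600 up to 0.15 on both plates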;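 also: plate controls were untreated wells for no effect and antibiotic for full effect; wells of about 80 µL received 100 nL stock; the first replicate is given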
RN4220 kill = S. aureus RN4220 growth inhibition; OD600, 16 h; inhibition, % (test concentration not listed); hit rate 0.33% among 330,000;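 active = z-score of -3 or lower and OD600 up to 0.18 on both plates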;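 also: plate controls were untreated cells for no effect and reference antibiotic for full effect; stock transfer was 100 nL into about 80 µL; one replicate is shown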
Mtb hypoxia inh growth = recorded beside Mtb hypoxia inh, whose call it bears; growth inhibition, %; measured here: M. tuberculosis growth (absorbance);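 0% = vehicle and 100% = reference antibiotic; read after six days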
Numbers without * were called inactive; i = inactive; / = no result given.

SMILES	PrP UTR inh	Mtb hypoxia inh	Mtb hypoxia inh growth	BJeLR lethal	Bead autofluor	ugtP null kill	RN4220 kill
CCN(CC(=O)Nc1ccc2c(c1)OCCO2)Cc1cc(=O)n2ccsc2n1	-9	6	11	2	4595	4	-0.3
CCN(CC)C1CCN(C(=O)CCc2nnc(CCCCc3ccccc3)o2)C1 (stereo not drawn)	-23	15	5	6	4372	8	4.8
CCC(NS(=O)(=O)c1ccc(C)cc1)C(=O)N1CCN(c2ccccn2)CC1 (stereo not drawn)	-31	/	/	-2	6079	6	4.3
Cc1ccnc(NC(=O)c2ccc(Cl)c([N+](=O)[O-])c2)c1	-4	20	4	13	1950	11	3.2
CCN(CC)CCCN=Cc1c(O)n(-c2ccccc2F)c(=O)[nH]c1=O	6	10	10	2	3044	0	3.0
CC1CN(C(C)CO)C(=O)c2cccc(NC(=O)C3CC3)c2OC1CN(C)Cc1ccc(Oc2ccccc2)cc1 (stereo not drawn)	/	6	10	/	/	-19	1.7
Cc1cc(S(=O)(=O)NC2CCCCC2)ccc1OCC(=O)NCC1CCCO1 (stereo not drawn)	-22	9	7	-1	3330	-7	4.9
CN(C)C1CCN(C(=O)c2cccc(OC3CCN(S(=O)(=O)N(C)C)CC3)c2)C1 (stereo not drawn)	-4	-4	3	-1	6126	3	0.9
S=c1[nH]nc([C@@H]2C[C@H]2c2ccccc2)n1-c1ccccc1	-15	5	-8	6	2428	5	0.1
O=c1cc(NCc2ccco2)[nH]c(=O)n1-c1ccc(Br)cc1	-3	6	-5	-12	6047	9	0.5
CCN(CC)S(=O)(=O)c1ccc(NC(=O)CCC2CCCCC2)cc1	-13	/	/	-2	3626	/	/
O=C(Nc1cccc(S(=O)(=O)N2CCCCC2)c1)c1ccc2c(c1)OCO2	-12	-14	-5	-1	10022	-6	3.5
CC/C(=N\NC(=S)Nc1ccc(OC)cc1)c1ccc(OC(F)F)cc1	-8	/	/	-3	2260	/	/
COc1ccc(/C=C2\SC(=O)N(CCNC(=O)C3=COCCO3)C2=O)cc1	-110	-15	7	28	6082	0	0.0
O=C(Nc1ccc2oc(=O)ccc2c1)c1ccc(-c2ccc(Cl)cc2)o1	-12	-5	4	-7	2150	-7	0.4
CCOc1ccc(NC(=S)NN2C(C)CCCC2C)cc1 (stereo not drawn)	-24	15	3	-9	2543	1	4.9
CCCCN(C)C1=CC2=CC(=C(C#N)C#N)CCC2CC1 (stereo not drawn)	-21	i	6	-4	49793*	-1	1.8
Cc1ccc(NC(=O)c2ccc(F)cc2F)cc1	-55	/	/	7	3200	5	6.6
CC[C@]1(C(=O)OC)[C@H]2C(=O)N(C)C(=O)[C@H]2[C@H]2CN=C(SCc3ccc(C#N)cc3)N21	-15	-4	0	/	2920	0	0.5
Cc1ccc(CSc2ncnc3c2cnn3Cc2ccccc2)cc1C	-1	2	11	-5	21383*	93*	-2.3
CCCOC(=O)/C(=C\c1ccc([N+](=O)[O-])o1)NC(=O)c1ccccc1	-2	11	15	6	2929	9	17
O=C1NCCCC1C(=O)N/N=C/c1ccc(Cl)cc1 (stereo not drawn)	-22	/	/	-3	4545	/	/
COc1ccccc1-n1cnnc1SC1CCOC1=O (stereo not drawn)	-19	/	/	1	2491	-6	0.9
Cc1sc(-n2c(C)cc(/C=C3\SC(=S)NC3=O)c2C)c(C#N)c1C	-9	-3	4	4	6218	-11	16
Cc1cccc(N2CCN(C(=O)c3cc(S(=O)(=O)N4CCOCC4)cn3C)CC2)c1C	-18	0	4	5	5997	4	7.2
c1ccc2c(CCNc3ncnc4nc[nH]c34)c[nH]c2c1	-28	-3	2	35	5903	1	10
O=C(O)Cc1cn(Cc2cccc(Cl)c2)c2ccccc12	5	7	-1	-13	2005	7	12
COCCN1C2=C(C(=O)CC(C)(C)C2)C(c2ccc(OC)c(OC)c2)C2=C1CC(C)(C)CC2=O	4	7	3	-9	3107	10	5.4
O=C(OCc1cc2ccccc2[nH]c1=O)c1ccncc1	-20	13	7	11	2687	-4	-6.9
O=C(CCn1c(=S)oc2ccccc21)Nc1cc([N+](=O)[O-])ccc1F	-17	2	2	-6	3192	0	4.7
CC[C@@]12C(=O)N(c3cccc(C)c3)C(=O)N1[C@H](c1ccc(OC)cc1)[C@@H]1C(=O)N(C(C)(C)C)C(=O)[C@@H]12	-21	/	/	4	3884	/	/
C[C@H](NC(=O)c1ccccc1Cl)C(=O)OCc1cn2cc(Cl)ccc2n1	-18	6	3	-1	6715	6	5.8
COc1ccc(S(=O)(=O)N2CCN(C(=O)NCc3ccc(OC)c(OC)c3)CC2)cc1	-17	5	8	0	3509	10	-2.6
CC1CCCC(C)N1CCCNC(=O)C1CCCN(c2ncnc3c2nc2n3CCCCC2)C1 (stereo not drawn)	2	5	-8	10	4671	9	4.5
COCCNC(=O)C12CC3CC(C1)CC(c1ccccc1)(C3)C2	-19	9	3	3	3590	1	3.2
Cc1nnc(-c2cnn(C)c2N)n1Cc1ccc2c(c1)OCO2	-36	3	2	-2	3175	2	7.0
COC(=O)c1ccccc1NC(=O)CN1C(=O)c2ccccc2C1=O	/	-1	-2	10	/	0	3.8
COC(=O)C(Cc1cnc(Cl)s1)(C(=O)OC)c1ccccc1[N+](=O)[O-]	-6	/	/	9	2599	17	5.7
CCCN=C1N(C)C[C@@H]2[C@@H]3C(=O)N(C)C(=O)[C@@H]3[C@](Cc3ccccc3)(C(=O)OC)N12	-9	1	0	/	3951	8	1.4
COc1cc(C)c(CNc2cccc(C)c2)cc1C	-22	-1	-2	4	8429	18	2.0
Cc1cc(C)n2nc(C(=O)Nc3nccs3)nc2n1	/	9	2	3	8217	11	6.4
Cc1ccc(CNc2ccc(CNc3ncn[nH]3)cc2)cc1	-15	7	6	-2	11612	0	0.9
O=C(O)CCCC(=O)Nc1cccc(C(=O)Nc2ccccc2C(=O)O)c1	-24	-1	1	-6	5478	-1	0.6
O=C1CSC(=Nc2cccc([N+](=O)[O-])c2)N1	2	14	-1	-14	2798	4	2.3
COc1ccc(S(=O)(=O)N2CCOCC2)cc1NC(=O)CN1CCCCCC1	-10	11	7	-11	3870	7	1.6
Cc1sc2nc(CSCC(=O)N(CCC#N)c3ccccc3F)[nH]c(=O)c2c1C	-32	0	2	/	4744	-4	6.5
CC(=NNC(=O)c1cc(C)[nH]n1)c1cccs1	/	12	14	/	/	4	7.6
O=C1/C(=C\c2ccc(O)c(O)c2)N=C2CCCCCN12	-29	4	-3	-11	3387	13	4.8
Cc1nnc(NC(=O)c2cccc(F)c2)s1	-15	0	4	-1	3106	0	-20
CCOC(=O)n1c(=O)n(C)c2ccc(Br)cc21	-18	5	1	-6	4885	2	1.6
N#Cc1ccccc1Cn1c(=O)n(C2CCCC2)c(=O)c2ccccc21	-14	-1	-6	-9	4123	19	-3.3
CC(CC(=O)Nc1ccc(N(C)C)cc1)=NNC(=O)Cc1csc(N)n1	/	13	10	/	/	1	3.9
S=C1NC(c2ccccc2)=NCN1c1ccccc1	-27	4	7	9	4206	13	6.6
COc1ccc(S(=O)(=O)N2CC(=O)Nc3ccccc32)cc1C	-10	-4	-1	2	3662	6	3.0
O=C(CCCN=C1NS(=O)(=O)c2ccccc21)OCC(=O)c1ccccc1	-12	2	5	6	6665	5	2.1
N#CC1=C2SCN(Cc3ccccc3)CN2C(=O)CC1c1ccc2c(c1)OCO2 (stereo not drawn)	-31	-11	-5	-17	9908	-1	0.9
CCOC(=O)c1[nH]c(C)c(C(=O)OCC(=O)NCc2ccc(OC)c(OC)c2)c1C	12	-8	-10	/	2634	-2	0.2
N#Cc1c(NC(=O)c2ccncc2)sc2c1CCC2	-25	-3	0	6	7544	-4	1.4
COc1ccc(OC)c(S(=O)(=O)NC2CCCCC2)c1	-3	2	6	4	22696*	3	4.1
CN(C(=O)/C=C/c1ccc2c(c1)OCO2)c1ccccc1	-31	/	/	0	3226	/	/
(next part)
SMILES	PrP UTR inh	Mtb hypoxia inh	Mtb hypoxia inh growth	BJeLR lethal	Bead autofluor	ugtP null kill	RN4220 kill
Cc1cc(C)nc(NC(=NCCc2c[nH]c3ccccc23)NC(=O)C(C)(C)C)n1	-16	-1	-3	-15	4443	-35	-0.7
Cc1cc(C)c(S(=O)(=O)Nc2ccccc2C(=O)N2CCOCC2)c(C)c1	-9	12	10	-3	5507	2	0.0
CC(C)(C)NC(=S)NCCc1ccccc1	-71	-5	-10	9	2369	6	-1.7
Cc1ccc(C)c(S(=O)(=O)N2CCN(C(=O)Cn3[nH]c(=O)c4ccccc4c3=O)CC2)c1	-4	-2	6	0	6987	-1	4.5
CCOC(=O)c1sc(NC(=O)Cn2nnc3sc4c(c3c2=O)CCC(C(C)(C)C)C4)nc1C (stereo not drawn)	-13	-7	1	-11	9448	20	9.5
OCC1(CCOc2ccccc2)CCN(Cc2cccn2-c2ncccn2)CC1	-40	5	5	2	4546	-1	2.9
CC(NC(=O)c1c(F)cccc1Cl)c1ccc(-n2ccnc2)cc1 (stereo not drawn)	-36	-1	4	0	6196	4	-1.4
CC(=O)c1c(C)[nH]c(C(=O)NC2=NCCS2)c1C	-30	7	4	-5	7009	-1	3.3
C/C(=N\NC(=O)c1ccc(NS(=O)(=O)c2cccs2)cc1)c1ccc(O)cc1O	-8	/	/	-5	4332	/	/
COc1ccc(-c2c(C(F)(F)F)oc3c(CN4CCN(C)CC4)c(O)ccc3c2=O)cc1	-15	11	19	1	2869	-10	-9.0
CCOc1ccc(N(C(C)C(=O)NCc2ccco2)S(C)(=O)=O)cc1 (stereo not drawn)	-15	10	-1	-5	4976	7	2.0
CC(C)Cc1nc2n[nH]c(N)c2c2c1CCC2	-4	10	8	6	4737	1	1.2
Cc1ccc(/C=C(\C#N)C(=O)Nc2ccccn2)o1	-97	5	7	3	3939	7	9.7
O=C(O)CN(c1ccc2c(c1)OCCO2)S(=O)(=O)c1ccccc1	-29	/	/	0	4796	3	4.0
O=C(NCCN1CCOCC1)c1cc(Sc2ccc(F)cc2F)nc2ccccc12	-10	7	-6	-2	4546	1	8.6
COc1cccc(/C=C/C(=O)Nc2ccc3[nH]c(=O)[nH]c3c2)c1	-21	-13	0	6	4814	5	-3.9
COc1ccc(/C=C/CN2CCC(n3nccc3NC(=O)C3CC3)CC2)cc1	-8	16	8	4	5428	12	3.7
Cn1c(SCC(=O)N2CCN(c3ccccc3)CC2)nnc1-c1ccco1	-35	5	9	-4	20444*	1	2.9
CN(CCCNS(=O)(=O)c1cccc2cccnc12)Cc1ccccc1	7	/	/	-4	5621	-5	7.1
O=C(Nc1cc(Cl)ccc1Cl)C1Cc2ccccc2OC1=NO (stereo not drawn)	/	4	-1	/	/	5	3.1
COC(=O)c1ccc(CNC(=O)COC(=O)/C=C/c2cc(OC)c(OC)c(OC)c2)cc1	-10	-4	6	/	3751	3	1.7
C/C(NCCCn1ccnc1)=C(\C#N)C(N)=O	-7	/	/	-2	2680	-2	-5.1
Cc1cc(C)cc(CC2CC(=O)N(c3nc(C)cc(C)n3)C2=O)c1 (stereo not drawn)	-31	-82	-11	3	3722	3	0.6
CC(C)COCC1CC2(CC(C)C(=O)CC2=O)C(=O)O1 (stereo not drawn)	-17	/	/	-7	2844	-9	-3.0
Cc1ccc(N)c2c1OCCC2=O	1	1	-3	2	2001	-9	2.8
